# TRPML1 blocker: inhibitors of human TRPML1 channel. actives 0.02% (n = 390,000). TRPML1-inducible cells, Ca2+ dye fluorescence, FDSS; hits give low values; inhibition of EC80 agonist-evoked calcium signal. activity change, negative = inhibition, % (test concentration not listed); in the data active means activity change below about -50%; inconclusive means about -30% to -50%; inactive means above about -30%;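 further: stimulus is agonist 54-4 at its EC80 concentration; on the % scale 0 is the no-effect control and ±100 the full control effect; compound concentration not given in the record; the text of the record puts the active cut at -80%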
#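 Calcium fluorescence in TRPML1-DL cells induced overnight with Tet: a 110 s read after compound pin addition, then a 110 s antagonist read after challenge with 54-4 at 4 uM final (EC80).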
# ClpP mod: qHTS Assay for Activators of ClpP; ATP-dependent Clp protease proteolytic subunit (Bacillus subtilis (strain 168)), P80244; purified B. subtilis ClpP, FRET peptide cleavage, 20 min; Potency, µM (titrated, usually from 57.5 µM), inactives show at the top dose activity change, negative = active; actives 1.9% (n = 340,000); active = well fitted falling curve with a large enough effect; inconclusive = small, poorly fitted or top-dose-only effect; inactive = no such curve, though single readings can be large or run the other way; further: potency means the concentration at half of the fitted maximal effect; the source files actives as falling curves though it sought activators and does not explain the sign; nearly all actives have a fitted effect of over 65% in size; many hits overshoot -100%
# Target sequence (P80244 whole entry, looked up): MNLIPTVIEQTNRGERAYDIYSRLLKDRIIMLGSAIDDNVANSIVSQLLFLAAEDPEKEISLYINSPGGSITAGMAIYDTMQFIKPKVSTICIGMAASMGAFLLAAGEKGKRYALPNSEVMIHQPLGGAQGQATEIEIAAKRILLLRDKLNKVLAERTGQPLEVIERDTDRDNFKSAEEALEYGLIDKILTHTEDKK
#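 Buffer: 100 mM Tris/HCl pH8, 100 mM KCl, 0.05% low protease BSA, 2.5% glycerol, 0.01% Tween-20. ClpP 10 microg/mL final; 20 min RT; delta FRET normalized to ADEP and DMSO controls.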
# TRPV1 PAM: human TRPV1 potentiation | TRPV1-expressing cells, Fluo-8 calcium influx, capsaicin EC20 potentiation; host cell line not named in the record; control for the full effect not named in the record | potentiation, % at 8.33 µM | actives 0.02% (n = 320,000) | AID 540277; active means potentiation above 80%; inconclusive means 30% to 80%; inactive means below 30%; further: 0% is about no effect
# Target sequence (Q8NER1 whole entry, looked up): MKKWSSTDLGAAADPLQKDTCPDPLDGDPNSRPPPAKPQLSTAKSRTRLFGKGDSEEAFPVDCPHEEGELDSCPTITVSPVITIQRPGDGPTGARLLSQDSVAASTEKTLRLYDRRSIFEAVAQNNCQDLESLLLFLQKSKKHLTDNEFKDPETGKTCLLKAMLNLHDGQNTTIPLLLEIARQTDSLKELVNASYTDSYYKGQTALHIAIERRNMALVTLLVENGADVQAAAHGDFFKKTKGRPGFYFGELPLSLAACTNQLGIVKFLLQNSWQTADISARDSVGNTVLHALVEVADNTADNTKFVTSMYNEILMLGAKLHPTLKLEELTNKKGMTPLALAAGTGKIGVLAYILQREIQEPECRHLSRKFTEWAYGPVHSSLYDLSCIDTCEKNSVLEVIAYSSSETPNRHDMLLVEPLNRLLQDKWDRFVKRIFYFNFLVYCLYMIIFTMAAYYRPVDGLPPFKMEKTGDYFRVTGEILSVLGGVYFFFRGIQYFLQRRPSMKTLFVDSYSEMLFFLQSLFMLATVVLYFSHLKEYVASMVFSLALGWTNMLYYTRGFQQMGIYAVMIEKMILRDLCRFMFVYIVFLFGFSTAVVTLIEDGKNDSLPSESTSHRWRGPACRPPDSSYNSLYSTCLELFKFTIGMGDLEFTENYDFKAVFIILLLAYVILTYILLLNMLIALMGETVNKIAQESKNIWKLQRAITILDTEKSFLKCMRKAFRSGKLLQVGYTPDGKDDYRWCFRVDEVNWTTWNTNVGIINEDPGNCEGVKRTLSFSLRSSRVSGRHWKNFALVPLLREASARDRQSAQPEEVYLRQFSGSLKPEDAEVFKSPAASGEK
#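 Fluo-8 calcium influx in TRPV1-expressing cells, kinetic read (ex 480/em 520 nm). Compound added and read 3 min for agonist activity, followed by capsaicin at EC20 final and 2 min further read for enhancement.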
# Menin MLL FP FL: menin-MLL binding inhibition, fluorescein peptide; Fluorescence polarization, fluorescein-MLL peptide displacement from menin; FP activity change, % at 61.4 µM; 290,000 tested, under 10 active; AID 1766; inconclusive = falling polarisation curve, or a change in total fluorescence; inactive = total fluorescence flat and polarisation flat or rising; no compound was filed as active; the % refers to the polarisation; negative = inhibition;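 further: % of control where 0% means no effect; inhibitors lower the polarisation; unlabelled MLL peptide was the positive control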
# Sfp PPTase inh: inhibitors of Bacillus subtilis Sfp phosphopantetheinyl transferase. Biochemical Sfp PPTase activity, qHTS. Q9F4F7. Potency, µM, without a hit: max response, negative = inhibition, usual class: inhibitors. actives 3.5% (n = 310,000); active means well fitted inhibition curve with a large enough effect; inconclusive means small, poorly fitted or top-dose-only effect, or another doubt; inactive means no such curve, though single readings can be large or run the other way;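 further: the enzyme is Sfp with the accession as filed and its product quenches rhodamine fluorescence; potency means the concentration at half of the fitted maximal effect; 0% = enzyme reaction without inhibitor and -100% = no enzyme wells; top concentration of the series not given in the record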
#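 Fluorescence-quenching assay: 15 nM Sfp-PPTase preincubated 15 min at room temperature with compound, then 5 uM rhodamine-CoA and 12.5 uM BHQ-2-labelled YbbR peptide added. Fluorescence (ex 525/em 598 nm) read at start and after 30 min; difference gives rate.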
# TRPML1 ag: human mucolipin-1 channel agonism. AID 624414. Q9GZU1. TRPML1-expressing cells, Ca2+ dye fluorescence, FDSS; host cell line not named in the record; reference of the full effect not given here. actives 0.12% (n = 410,000). activation, % (test concentration not listed); in the data active = activation above about 50%; inconclusive = about 30% to 50%; inactive = below about 30%; further: 0% is about no effect; the text of the record puts the active cut at 80%
#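 Kinetic FDSS Ca2+ read in Tet-induced TRPML1-DL cells (ABD Ca8 dye plus quencher, 45-90 min RT loading): baseline, then compound, then 110 s agonist window; EC80 agonist 54-4 at 4uM final added afterwards for a 110 s antagonist window.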
# PINK1 modulator: modulators of PINK1 expression; actives 0.2% (n = 410,000); Potency, µM (series often up to 76.6 µM), for inactives: at the highest dose activation (PINK1 increase), most hits filed as activators; PINK1 immunofluorescence, high-content cytometry, 24 h; active = well fitted activation curve with a large enough effect; inconclusive = small, poorly fitted or top-dose-only effect; inactive = flat fitted curve, though single readings scatter; cell line not stated here;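 further: potency means the concentration at half of the fitted maximal effect; % of control where 0% means no effect; nearly all actives have a fitted effect of over 65% in size; a mitochondrial uncoupler was the plate control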
#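 A stable cell line was treated with compounds at 5 concentrations for 24 hours, with CCCP as control. PINK1 levels and mitochondrial localization were measured by immunofluorescence with mitochondrial, cell and nuclear markers after fixation, read by laser-scanning cytometry.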
# * = called active by the depositor; u = inconclusive; x = no result given; & = joins results of further samples; [ ] = another dose, or the depositor's remark. Outcome played no part in choosing rows; overall some 4.4% were active at least once.
# Short keys: A = TRPML1 blocker; B = ClpP mod; C = TRPV1 PAM; D = Menin MLL FP FL; E = Sfp PPTase inh; F = TRPML1 ag; G = PINK1 modulator
O=C(c1cccc(F)c1)N1CCCC(C(=O)N2CCN(c3ccccc3)CC2)C1 (stereo not drawn)
  A = -12; B = x; C = -3; D = 2.3; E = 7%; F = -0.3; G = -1.3%

Cc1onc(-c2ccccc2)c1-c1csc(COc2ccccc2)n1
  A = 32; B = -3.0%; C = 22; D = 1.1; E = -7%; F = -0.2; G = 2.8%

Nc1nc(-c2ccc(Cl)cc2)nn1C(=O)c1cccnc1
  A = 5; B = -1.9%; C = -11; D = 2.0; E = 5%; F = -0.1; G = 16%[38.3 µM]

COc1ccc(C=C2SC(=S)NC2=O)c(OC)c1OC
  A = 8; B = -13%; C = x; D = x; E = x; F = 2.4; G = -3.3%

O=C1c2ccccc2CCC12OC2c1ccncc1 (stereo not drawn)
  A = -4; B = -3.4%; C = x; D = x; E = x; F = -0.2; G = 1.9%

COc1ccc(C(=O)OCC(=O)c2ccc(C3CCCCC3)cc2)cc1
  A = -18; B = -3.5%; C = 9; D = 0.7; E = -4%; F = 0.3; G = -1.7%

C=CCn1c(SCC(=O)NCCOC)nnc1-c1cc2c(s1)CCC(CC)C2 (stereo not drawn)
  A = -21; B = -8.0%; C = -11; D = 4.8; E = -7%; F = 1.9; G = 1.2%

Cc1ccccc1NC(=O)CSCn1nnc2c(=O)[nH]c(Cc3ccc(F)cc3)nc21
  A = 4; B = -1.3%; C = x; D = x; E = x; F = 0.7; G = -1.0%

Cc1noc(C)c1COc1cccc(C(=O)Nc2ccccc2N2CCOCC2)c1
  A = -4; B = x; C = -15; D = 0.2; E = -11%; F = 1.4; G = 0.7%

Nc1cccc(-c2cn3cccnc3n2)c1
  A = -9; B = -6.9%; C = -5; D = 1.2; E = 14%; F = 1.8; G = 0.7%

NC1=NC(=O)C(c2ccccc2)(c2ccccc2)S1
  A = 4; B = 0.5%; C = x; D = x; E = x; F = 1.9; G = -5.2%

CCCCCCCCCCCC(=O)NC1CCS(=O)(=O)C1 (stereo not drawn)
  A = -2; B = 2.9%; C = -4; D = 0.7; E = 4%; F = -0.9; G = 0.7%

Cc1c(N(C)C(=O)c2ccc3c(c2)OCO3)c(=O)n(-c2ccccc2)n1C
  A = -6; B = -1.6%; C = 9; D = 0.2; E = 9%; F = -0.5; G = 22%[38.3 µM]

Cc1ccc(-c2nc(SCC(=O)N3CCc4ccccc43)c3c(=O)n(C)c(=O)n(C)c3n2)cc1
  A = -11; B = 0.0%; C = x; D = x; E = x; F = 0.4; G = 1.7%

O=C(Nc1ccc(OCc2ccccc2)cc1)c1cccc([N+](=O)[O-])c1
  A = 11; B = 3.6%; C = -20; D = 9.2; E = 0%; F = 2.4; G = 11%

O=C(CCN1C(=O)C2C3C=CC(C3)C2C1=O)Nc1ccc2c(c1)OCO2 (stereo not drawn)
  A = -9; B = 1.2%; C = 8; D = -3.0; E = 8%; F = -0.4; G = 0.5%

Cn1ccc(=NC=C(C#N)C#N)c2ccccc21
  A = 0; B = x; C = 5; D = u; E = 8%; F = 5.0; G = -0.9%

O=C(CCNC(=O)c1ccc([N+](=O)[O-])cc1)Nc1ccc(F)cc1
  A = 12; B = x; C = 22; D = -3.5; E = 0%; F = -0.6; G = 0.5%

CC(C)CC(NC(=O)C(NC(=O)OC(C)(C)C)C(C)C)C(N)=O (stereo not drawn)
  A = 8; B = x; C = 2; D = 2.2; E = 11%; F = 0.7; G = u

CCCn1nnc(NC(=S)NC(=O)c2cccs2)n1
  A = -1; B = 1.3%; C = -2; D = -4.4; E = 40µM*; F = 0.0; G = -0.5%

Cc1ccc(NC(=O)Cn2c(=O)cnc3ccccc32)cc1S(=O)(=O)N1CCCCC1
  A = -9; B = -7.1%; C = -10; D = x; E = x; F = -0.6; G = 2.2%

N#Cc1cc(-c2ccccc2)oc1NC(=O)c1ccco1
  A = 16; B = 1.4%; C = -9; D = 3.3; E = 1%; F = 2.3; G = -2.1%

COC(=O)[C@]1(Sc2ccc(C)cc2)CC(=O)N[C@@H]1c1ccco1
  A = x; B = -2.7%; C = x; D = x; E = x; F = -0.4; G = 2.1%

CC(=O)N=C1SC2CS(=O)(=O)CC2N1c1ccc(-c2nc3ccc(C)cc3s2)cc1 (stereo not drawn)
  A = x; B = x; C = 9; D = 3.6; E = -6%; F = x; G = x

COc1cc(OC)c(NC(=O)C(NS(=O)(=O)c2cccc3nsnc23)c2ccccc2)cc1Cl (stereo not drawn)
  A = 0; B = 0.2%; C = x; D = x; E = x; F = 1.4; G = 0.3%

Cc1cc(NCCN2CCCCC2)n2c(nc3ccccc32)c1C#N
  A = x; B = x; C = -2; D = 2.2; E = 10%; F = x; G = x

CCN(CC(=O)NCc1cccs1)C(=O)Cc1ccc(Cl)c(Cl)c1
  A = -8; B = x; C = x; D = x; E = x; F = 1.4; G = -1.6%

O=C(CN1CCOCC1)Nc1ccc2c(c1)OC(F)(F)O2
  A = 13; B = x; C = -2; D = 2.5; E = 18%; F = 0.2; G = 0.6%

O=C(c1ccco1)N1CCN(C(c2ccccc2Cl)c2nnnn2Cc2ccco2)CC1 (stereo not drawn)
  A = 4; B = -0.8%; C = 7; D = -0.2; E = 50µM*; F = 1.1; G = -0.9%

COc1ccc(C(C)=O)cc1COC(=O)C(CO)NS(=O)(=O)c1ccc(Br)cc1 (stereo not drawn)
  A = 12; B = x; C = -8; D = -5.6; E = 6%; F = 0.4; G = 2.1%

CC1CCCC(C)N1C(=O)COC(=O)CCC(=O)c1ccc(F)cc1 (stereo not drawn)
  A = -4; B = 0.0%; C = x; D = x; E = x; F = -0.3; G = 0.8%

CC(=O)N1CCC2(CC1)CC(=O)c1cc(OCC(=O)NCc3ccc(C)cc3)ccc1O2
  A = 13; B = 28µM*; C = -5; D = 0.5; E = -4%; F = -0.1; G = -6.1%[38.3 µM]

O=c1cc(-c2cccc(F)c2)[nH]c2ccccc12
  A = 2; B = -13%; C = 3; D = -2.1[94.6 µM]; E = -2%&10%; F = -0.5; G = 6.3%

CCCOc1ccc(-c2nnn(CC(=O)c3c[nH]c4ccccc34)n2)cc1
  A = 12; B = -14%; C = 3; D = 4.8; E = 10%; F = 0.8; G = x

COc1ccc2oc(C)c(C(=O)c3ccc([N+](=O)[O-])cc3)c2c1
  A = 29; B = -20%; C = 1; D = 2.2; E = -1%; F = 3.1; G = -3.0%

O=C(CC1C[C@H](C(=O)N2CCCCC2)[C@@]2(CCc3ccccc3)c3[nH]c4ccccc4c3CCN2C1=O)NCc1cccc(C(F)(F)F)c1 (stereo partly drawn)
  A = -9; B = -1.6%; C = x; D = x; E = x; F = -0.7; G = 16%

Cn1c(=O)c2c(-c3ccccc3)n(-c3ccccc3O)cc2n(C)c1=O
  A = 21; B = 28µM*; C = -9; D = -0.4; E = 6%; F = 0.6; G = -5.7%[38.3 µM]

Cc1cc(C)nc(/N=C(/NC(=O)Nc2ccc(Cl)c(Cl)c2)Nc2ccccc2)n1
  A = x; B = x; C = 0; D = 2.6; E = 8%; F = x; G = x

CCn1cnc2sc(C(=O)N(Cc3ccc(N(C)C)cc3)Cc3ccco3)c(C)c2c1=O
  A = 7; B = -2.2%; C = -18; D = 3.9; E = u; F = 2.2; G = -1.7%

O=S(=O)(Nc1c(O)ccc2ccccc12)c1ccccc1
  A = 11; B = -14%; C = x; D = x; E = x; F = 0.5; G = -0.5%

COC(=O)c1ccc(COC(=O)c2ccc(C)c(S(=O)(=O)N3CCCCC3)c2)cc1
  A = -24; B = x; C = -6; D = x; E = x; F = -0.2; G = -3.2%

O=C(O)CSCC(=O)NCc1ccccc1
  A = -10; B = -0.6%; C = 4; D = 1.9; E = 8%; F = 1.5; G = -0.7%[38.3 µM]

Nc1ccccc1SCc1ccccc1
  A = 37; B = 0.3%; C = 2; D = 0.3; E = -9%; F = 1.8; G = 6.7%

CCOc1ccc(-n2cnnn2)cc1S(=O)(=O)N1CCCCC1
  A = 1; B = 2.1%; C = 11; D = -1.7; E = -5%; F = -0.4; G = 4.4%[38.3 µM]

COc1ccc(C2(c3ccc(OC)cc3)NC(=O)N(CC(=O)NC(C)C)C2=O)cc1
  A = -6; B = x; C = -1; D = -0.7; E = 17%; F = 0.4; G = 1.6%

O=C1c2ccc(Oc3ccc4c(c3)C(=O)N(CCCCO)C4=O)cc2C(=O)N1CCCCO
  A = 0; B = -5.7%; C = -15; D = -0.6; E = -16%; F = 1.1; G = 1.4%

CSc1ccccc1C(=O)N1CCC(CCC(=O)NCc2ccc(F)cc2)CC1
  A = 31; B = 2.0%; C = -13; D = x; E = 12%; F = -0.5; G = 2.7%

O=C(c1ccc(N2CCOCC2)c([N+](=O)[O-])c1)N1CCN(S(=O)(=O)c2cccs2)CC1
  A = 30; B = 0.7%; C = -6; D = -0.2; E = 8%; F = -0.4; G = 1.6%

CCOc1cccc(C(=O)Nc2ccncc2)c1
  A = 28; B = 0.5%; C = -5; D = 1.9; E = 5%; F = -0.7; G = -0.6%

Cc1nnc(-c2ccccc2)[nH]c1=O
  A = -4; B = x; C = -5; D = 8.6; E = 19%; F = 0.1; G = 1.5%

CCCCN1C(=N)N([C@@H](C)CN2CCC[C@H]2CN2C(N)=NC[C@H]2CC(C)C)C[C@H]1[C@H](C)CC
  A = 7; B = -2.2%; C = x; D = x; E = x; F = -0.6; G = -0.4%

CC(C)(C)c1ccc(-c2nc(C#N)c(NCc3cccnc3)o2)cc1
  A = 5; B = 32µM*; C = 2; D = -1.1; E = -5%; F = -1.2; G = 0.5%

# Complete entries as entered above:
# Entry for O=C(CN1CCOCC1)Nc1ccc2c(c1)OC(F)(F)O2 → TRPML1 blocker: 13; ClpP mod: x; TRPV1 PAM: -2; Menin MLL FP FL: 2.5; Sfp PPTase inh: 18%; TRPML1 ag: 0.2; PINK1 modulator: 0.6%
# Entry for CCCCN1C(=N)N([C@@H](C)CN2CCC[C@H]2CN2C(N)=NC[C@H]2CC(C)C)C[C@H]1[C@H](C)CC → TRPML1 blocker: 7; ClpP mod: -2.2%; TRPV1 PAM: x; Menin MLL FP FL: x; Sfp PPTase inh: x; TRPML1 ag: -0.6; PINK1 modulator: -0.4%
# Entry for COC(=O)c1ccc(COC(=O)c2ccc(C)c(S(=O)(=O)N3CCCCC3)c2)cc1 → TRPML1 blocker: -24; ClpP mod: x; TRPV1 PAM: -6; Menin MLL FP FL: x; Sfp PPTase inh: x; TRPML1 ag: -0.2; PINK1 modulator: -3.2%
